# Source: PubChem
# N370S GC: inhibits or activates N370S mutant glucocerebrosidase; P04062; N370S GC spleen homogenate, 4MU-glucoside fluorescence; Potency, µM (titrated, usually from 59.4 µM), for the others: top-dose activity change, negative = inhibition, most hits filed as inhibitors; 330,000 tested, 0.092% active; AID 2101;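 also: 0% = full enzyme activity and -100% = no enzyme basal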
# TDP1 block: blocks human tyrosyl-DNA phosphodiesterase 1; Potency, µM (series often up to 130 µM), for inactives: at the highest dose activity change, negative = inhibition, most hits filed as inhibitors; recombinant TDP1, AlphaScreen DNA substrate cleavage; Q9NUW8; 350,000 tested, 0.28% active; AID 485290; also: nearly all actives have a fitted effect of over 40% in size
# Target sequence (Q9NUW8 whole entry, looked up): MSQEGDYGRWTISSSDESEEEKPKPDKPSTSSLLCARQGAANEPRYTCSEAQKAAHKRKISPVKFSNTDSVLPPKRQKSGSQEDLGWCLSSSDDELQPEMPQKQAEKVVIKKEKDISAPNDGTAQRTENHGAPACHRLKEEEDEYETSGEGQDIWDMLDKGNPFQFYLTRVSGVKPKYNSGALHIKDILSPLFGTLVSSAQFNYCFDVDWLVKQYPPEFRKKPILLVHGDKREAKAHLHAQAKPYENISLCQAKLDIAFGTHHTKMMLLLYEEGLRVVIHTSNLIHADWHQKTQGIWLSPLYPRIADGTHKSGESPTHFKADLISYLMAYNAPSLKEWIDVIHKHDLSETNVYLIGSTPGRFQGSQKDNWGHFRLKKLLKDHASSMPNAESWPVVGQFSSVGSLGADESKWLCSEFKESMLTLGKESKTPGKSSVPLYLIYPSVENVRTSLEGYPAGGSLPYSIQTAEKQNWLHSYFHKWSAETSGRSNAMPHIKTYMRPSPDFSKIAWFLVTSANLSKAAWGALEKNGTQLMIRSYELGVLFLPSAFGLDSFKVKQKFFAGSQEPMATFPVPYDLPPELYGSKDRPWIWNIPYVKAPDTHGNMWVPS
#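 E. coli-derived human Tdp1, 1 nM final. Cpd preinc 15 min RT; substrate 15 nM final, 5 min RT; AS bead mix 10 ug/ml final, 10 min RT. Signal loss = tyrosine-FITC cleavage. No-enzyme wells = max signal.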
# Active calls of the source: *; ? = inconclusive; · = not tested or not shown; & = joins results of further samples; [ ] = remark or other dose. Calls follow the shape of the dose curve; as a rule, active = well fitted curve in the direction sought with a large enough effect; inconclusive = small, poorly fitted or top-dose-only effect, or another doubt; inactive = no such curve, though single readings can be large; an effect the other way counts as inactive or inconclusive. Unless noted, % is scaled to controls: 0 for no effect and ±100 for the full control effect; potency is read from the fitted curve at half-maximal effect. An excerpt; most or all hits stand in other tables.
# Fields: N370S GC | TDP1 block
Nc1c(C(=O)Nc2ccc(S(=O)(=O)N3CCCC3)cc2)sc2nc3cc4c(cc3cc12)CCC4
    5% | 1%
COc1ccccc1NC(=O)c1ccc(-n2ccnc2)c([N+](=O)[O-])c1
    -19% | ·
COc1ccc(C(=O)CN2C(=O)c3ccccc3C2=O)c(OC)c1C
    18% | 2%
Cc1csc2nc(=O)c3ccccc3n12
    2% | 1%
CCOc1cc(C2C(C(=O)OC)=C(C)N=C3SCCC(=O)N32)ccc1OC(C)=O (centres undefined)
    -2% | 6%
COc1cccc(CN(C)C(=O)c2ccc3nccnc3c2)c1
    0% | 4%
CCc1nc2nc(C)c(NS(=O)(=O)c3ccc(F)cc3)c(=O)n2[nH]1
    -1% | 3%
COCCn1cnnc1SCC(=O)Nc1sccc1C(N)=O
    -1% | -9%
Cc1cc2nc(C3CCN(C(=S)NCCCOC(C)C)CC3)[nH]c2cc1C
    -10% | 2%
O=C(CNC(=O)C1CCCCC1)NCCCO
    2% | 1%
COCCNC(=O)Cn1cc(/C=N/NC(=O)c2ccc(Oc3ccc(O)cc3)cc2)c2ccccc21
    3% | 2%
CCCSc1ccc([C@@H]2[C@H]3C(=O)N(CC)C(=O)[C@H]3[C@]3(C(=O)OC)CCCCN23)cc1OC
    2% | 0%
O=C(Nc1ccc(F)c(F)c1)NC1CCCCC1
    3% | -9%
CCOC(=O)C1=C(COC(=O)CCOc2ccc(OCC)cc2)NC(=O)NC1C (centres undefined)
    · | -1%
Cc1nn(C)c(Sc2ccccn2)c1[N+](=O)[O-]
    2% | 1%
COc1ccc(C(=O)N2CCN(c3ccc(C(C)=O)cc3)CC2)cc1S(=O)(=O)N1CCCC1
    · | 2%
O=c1ccc(/C=C/c2ccccc2)nn1Cc1ccccc1
    18% | -3%
CCOc1ccc2oc(C(=O)N3CC(C)OC(C)C3)c(C)c2c1 (centres undefined)
    9% | 6%
CCCN1C(=O)/C(=C/c2c(NCCCOCC)nc3c(C)cccn3c2=O)SC1=S
    8% | 6%
CC(C)c1ccc(-c2nnc(N)s2)cc1
    -1% | 2%
COc1ccccc1CCN1CCCC(CN(C)C(=O)CCC(=O)N(C)C)C1 (centres undefined)
    2% | 2%
COc1ccc(-c2cn(CCC(=O)O)c(-c3ccc(Cl)nc3)n2)cc1
    4% | 1%
Cc1ccccc1Cn1nc(C)c(NC(=O)/C=C/c2cnn(C)c2)c1C
    -6% | 1%
O=c1ncn(-c2ccccc2C(F)(F)F)c2ncccc12
    -1% | 3%
CCOC(=O)CCc1c(C)n(CC)c2ncnn2c1=O
    5% | 0%
CCc1n[nH]c(=S)n1/N=C/c1c(C)nn(-c2ccccc2)c1Cl
    -6% | 2%
CC(C)CNC(C(=O)Nc1ccc([N+](=O)[O-])cc1Br)c1ccccc1 (centres undefined)
    12% | 5%
Cc1cc(=O)[nH]c(N/N=C/c2c(C)nn(-c3ccccc3)c2C)n1
    -1% | 5%
COc1cc([C@@H]2[C@H]3CNCC=C3C(C#N)=C(N)C2(C#N)C#N)ccc1OC(C)C
    -13% | 7%
O=C(NCCNc1ccc(Cl)cc1[N+](=O)[O-])c1ccccc1F
    9% | 3%

# Next part.
# Fields: N370S GC | TDP1 block
O=C(Nc1c(F)cccc1F)c1ccc(-n2cncn2)nc1
    ? | 1%
CC(C)C(NC(=O)c1ccc(S(=O)(=O)N2CCOCC2)cc1)c1nc2ccccc2[nH]1 (centres undefined)
    -4% | 5%
Cc1csc(NC(=O)[C@@H](NC(=O)c2ccccc2)C(C)C)n1
    6% | 3%
CCCc1cc(=O)oc2c(C)c(OCC(=O)Nc3ccccn3)ccc12
    -2% | ?
CCN(CC(=O)N1CCOCC1)S(=O)(=O)c1ccc(C)cc1
    -5% | 2%
Cc1cc(C)[n+](-c2ccc(Oc3ccccc3)c(S(=O)(=O)[O-])c2)[nH]1
    3% | ·
O=C(Nc1ccccc1F)c1ccc(Cn2cc(Cl)cn2)cc1
    -7% | 5%
CCCCn1c2c(c(=N)c3c1CCC3)CCC2
    3% | 1%
CCS(=O)(=O)Nc1cc(C(=O)O)ccc1C
    -26% | 2%
CC(=O)c1ccc(Nc2nc(C)cc(C)n2)cc1
    0% | ·
CCOc1cc(S(=O)(=O)N2CCN(c3ccc(F)cc3)CC2)c(OCC)cc1-n1cnnn1
    8%[2.35 µM] | 6%
Cc1c(Cl)c([N+](=O)[O-])nn1CCCC(=O)Nc1cccc(Cl)c1Cl
    0% | 5%
COC(=O)C1C(c2ccccc2)C(C(=O)OCc2ccco2)C1c1ccccc1 (centres undefined)
    5% | 2%
CCN(C/C=C/c1ccccc1OC)Cc1ccccc1
    -5% | ·
CCOP(=O)(OCC)C(NC(=O)c1ccc(OC)c(OC)c1)c1ccccc1 (centres undefined)
    -6% | 5%
C=CCSc1nnc(-c2ccncc2)n1-c1ccc(OCC)cc1
    4% | 3%
COC(=O)C(C)N(C#N)c1nc(NC(C)C)nc(SC)n1 (centres undefined)
    9% | 3%
COc1ccc(CCNC(=O)CSc2nc3[nH]ncc3c(=O)n2-c2cccc(C(F)(F)F)c2)cc1OC
    -9% | 2%
O=C(COC(=O)c1ccc(Cl)c(S(=O)(=O)N2CCc3ccccc3C2)c1)Nc1ncc(Cl)cc1Cl
    1% | 3%
C/C(=N\NC(=O)C(=O)Nc1ccc(C)c(Cl)c1)c1ccncc1
    0% | ·
CC(C(=O)N1CCOCC1)N1C(=O)c2ccccc2C1=O (centres undefined)
    6% | 9%
CCOC(=O)C1CCN(S(=O)(=O)c2ccc3c(c2)CC(C)N3C(=O)C2CCC2)CC1 (centres undefined)
    0% | 1%
COc1ccccc1N1CCN(S(=O)(=O)CC23CCC(CC2=O)C3(C)C)CC1 (centres undefined)
    3% | -5%
COC(=O)CCC(=O)Nc1ccccc1C(=O)Nc1ccccc1
    -19% | 4%
COCCN(C(=O)C1CC1)c1nnc(-c2cccc(C)c2)s1
    -6% | 1%
COc1ccccc1NC(=O)c1cc(S(=O)(=O)NC2CCCC2)ccc1F
    -15% | 1%
O=C(NCc1ccncc1)C(=O)N/N=C/c1cccnc1
    -2% | 0%
COC(=O)c1cc(-c2ccccc2)sc1N
    3% | 6%
CCSC1=NCN(CCCC(=O)O)CN1
    7% | -3%
CCNC(=O)N1CCCC(C(=O)c2ccc(OC)c(OC)c2)C1 (centres undefined)
    1% | -3%

# (cont.)
# Fields: N370S GC | TDP1 block
O=C(CN1CCCCC1)N1c2ccccc2CCc2ccccc21
    -6% | 5%
COC(=O)c1ccc(NC(=O)NS(=O)(=O)c2ccc(C)cc2)cc1
    5% | 2%
O=C(Nc1nncs1)c1ccc(S(=O)(=O)c2ccccc2)cc1
    1% | 3%
Cc1ccc(S(=O)(=O)N2CC(O)C2)cc1
    -18% | 1%
CN(CC(=O)Nc1nc2ccccc2s1)S(=O)(=O)c1ccccc1
    -12% | 6%
CCn1c(SCC(=O)N2CCN(c3ccccc3)CC2)nc2c(c1=O)SC(C)C2 (centres undefined)
    9% | 3%
Cc1ccc(NC(=O)CN2C(=O)CNC2=O)cc1
    0% | -4%
CCN(CC)c1ccc2c(C)cc(=O)oc2c1
    ? | -7%&-3%
CCOC(=O)C1=C(C)NC(=O)NC1c1ccccc1Cl (centres undefined)
    -19% | 4%
O=C(c1ccsc1)N1CCCC(N2CCOCC2)C1 (centres undefined)
    1% | 1%
Cc1ccccc1-n1nc(C)c2cc(C(=O)N3CCN(S(=O)(=O)c4ccc(F)cc4)CC3)sc21
    11% | -2%
CC(=O)Nc1ccccc1NC(=O)c1ccccc1-c1ccccc1
    -17% | ·
Cc1sc2ncn(CC(=O)NCC(=O)N(C)C3CCCCC3)c(=O)c2c1C
    2% | -1%
CC(O)CNc1nc2ccccc2n1CC(=O)NCC(F)(F)F (centres undefined)
    0% | -1%
COC(=O)c1ccccc1NC(=O)c1ccc(COc2ccccc2)o1
    22% | -8%
CC1CN(C(=O)c2ccccc2)C(=Nc2cccc(S(=O)(=O)N(C)C)c2)S1 (centres undefined)
    13% | 3%
O=C(COc1ccc2c3c(c(=O)oc2c1)CCC3)N1CCCCC1
    -3% | ·
CC(NC(=O)C12CC3CC(C)(CC(C)(C3)C1)C2)c1ccncc1 (centres undefined)
    -4% | ·
COc1cc(/C=C(/C#N)C(=O)Nc2ccc(C)cc2)ccc1Oc1nc(Cl)ncc1F
    -27% | 5%
c1coc(-c2nnc3sc(C4CCCCC4)nn23)c1
    25% | 5%
COc1ccc(C(=O)N2CCN(c3ccccn3)CC2)cc1[N+](=O)[O-]
    -16% | 3%
O=C(OC(C(=O)NC1CCCC1)c1ccccc1F)c1ccco1 (centres undefined)
    13% | 5%
COc1ccc(OC)c(C(=O)CSc2nc3c(c(=O)n(C)c(=O)n3C)n2C(C)C)c1
    -2% | 6%
COC(=O)c1[nH]c2cccc(OC)c2c1NC(=O)CN(C)CC1OCCO1
    4% | 0%
CCCCN1C(=S)SC(C)(C)C1/[N+]([O-])=C/c1ccc(S(=O)(=O)NC)cc1 (centres undefined)
    0% | 4%
COc1ccc(-c2cc(C(F)(F)F)c3c(N)c(C(=O)NCCSC)sc3n2)cc1
    0% | ·
CCOc1ccc(OCC)c(NC(=O)CCn2c(=O)oc3ccccc32)c1
    7% | 8%
Cc1ccc(CSCCNC(=O)c2cccc([N+](=O)[O-])c2)cc1
    10% | 0%
Nc1ccccc1-c1nnc(SCC(=O)Nc2ccccc2OC(F)F)[nH]c1=O
    · | 2%
CCOC(=O)CSc1nnc(Cn2nnc3ccccc32)n1-c1ccc(F)cc1
    -2% | 1%

# Gathered by group: the entries above with a COOH group (3)
# Fields: N370S GC | TDP1 block
COc1ccc(-c2cn(CCC(=O)O)c(-c3ccc(Cl)nc3)n2)cc1
    4% | 1%
CCS(=O)(=O)Nc1cc(C(=O)O)ccc1C
    -26% | 2%
CCSC1=NCN(CCCC(=O)O)CN1
    7% | -3%

# New compounds follow.
# Fields: N370S GC | TDP1 block
COc1ccc(C(=O)N2CC3(CC(c4cccc(NC(=O)CC(c5ccccc5)c5ccccc5)c4)=NO3)C[C@H]2C(N)=O)cc1 (some centres undefined)
    -7% | 5%
O=C(COc1ccc(Cl)cc1)Nc1cccc(-c2ccc(N3CCOCC3)nn2)c1
    -8% | ·
COc1ccc(C(C(=O)NC(C)C)N(C(=O)CCC(=O)Nc2nccs2)c2ccccc2F)cc1 (centres undefined)
    -30% | 0%
CC1(C)CC(NC(=O)C2CCN(S(=O)(=O)c3ccccc3C(F)(F)F)CC2)CC(C)(C)N1
    1% | 5%
Cc1ncc(CO)c(/C=N/NC(=O)c2cccc(S(=O)(=O)N3CCCC3)c2)c1O
    -10% | -1%[0.505 µM]
Cc1cccc(-n2nnnc2SCC(=O)c2cc(C)n(CC3CCCO3)c2C)c1 (centres undefined)
    17% | 7%
CCN(CC)S(=O)(=O)c1ccc2c(c1)nc(CCC(=O)Nc1ccc3c(c1)OCO3)n2CC
    -2% | 6%
O=C(CCNC(=O)c1ccccc1)NC1CCCc2ccccc21 (centres undefined)
    -16% | 12%
COCCN(C(=O)COC(=O)CCCOc1ccc(OC)cc1)c1c(N)n(Cc2ccccc2)c(=O)[nH]c1=O
    -2% | 7%
Cc1cccc(NC(=S)NC2CC3CCC(C2)N3Cc2ccco2)c1 (centres undefined)
    -10% | 5%
CC1CC(C)(C)NC(=S)N1CCCC(=O)NCc1ccccc1 (centres undefined)
    4% | 5%
COc1cc(/C=N/NC(=O)c2[nH]nc3c2CCc2ccccc2-3)ccc1O
    7% | 3%
CCOc1ccc(CCNC(=O)Cn2c(-c3nonc3N)nc3ccccc32)cc1OCC
    6% | 7%
Cc1ccc(S(=O)(=O)N2CCOCC2)cc1NC(=O)COC(=O)CCOc1ccc(C(C)(C)C)cc1
    -29% | -19%[0.505 µM]
O=C(CO/N=C/c1ccccc1)Nc1c(F)c(F)c(F)c(F)c1F
    -1% | 1%
Cc1cccc2nc(CSc3nc4ccc([N+](=O)[O-])cc4[nH]3)cn12
    -4% | 5%
Cc1[nH]c2ccccc2c1N=Nc1cccc(C(=O)O)c1
    5% | -3%
O=C(NCCC1CCCCN1S(=O)(=O)c1cccs1)C(=O)Nc1ccccc1F (centres undefined)
    2% | -3%
O=C(NC(=S)N1CCN(c2ccc(Cl)cc2[N+](=O)[O-])CC1)c1ccco1
    9% | -2%
CCNc1nc(NCC)nc(SCCOc2ccc(C)cc2)n1
    -9% | -3%
c1ccc(-c2ccc(OCCCn3cncn3)cc2)cc1
    3% | -2%
CCCCc1nnc(NC(=O)CSCc2cc(=O)n3cc(C)sc3n2)s1
    -4% | 3%
O=C(O)c1cc(N2C(=O)C3CCCCC3C2=O)ccc1NCc1cccnc1 (centres undefined)
    6% | 6%
CC(C)Sc1nc2c(c(=O)[nH]c(=O)n2C)n1Cc1ccc(Cl)cc1
    4% | 4%
CCN(CC)S(=O)(=O)c1cccc(-c2nnc(SCC(N)=O)n2N)c1
    11% | 1%

# Quoted at random: 4 records from the list.
# Fields: N370S GC | TDP1 block
CCOC(=O)CCc1c(C)n(CC)c2ncnn2c1=O
    5% | 0%
CCN(CC)S(=O)(=O)c1ccc2c(c1)nc(CCC(=O)Nc1ccc3c(c1)OCO3)n2CC
    -2% | 6%
Cc1ccc(NC(=O)CN2C(=O)CNC2=O)cc1
    0% | -4%
CC1(C)CC(NC(=O)C2CCN(S(=O)(=O)c3ccccc3C(F)(F)F)CC2)CC(C)(C)N1
    1% | 5%
